KCNQ2 enhance = potentiators of rat KCNQ2 potassium channel; Potassium voltage-gated channel subfamily KQT member 2 (Rattus norvegicus), O88943; CHO-K1 KCNQ2, FluxOR thallium flux fluorescence; stronger effect = higher value; B-score at 10 µM; 0.54% of 310,000 active; AID 2239, 2010;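 active = fluorescence ratio B-score at least 3 SD of library B-scores, with initial fluorescence B-score within 3 SD, cut at about 5.3 in these data; same plate scores as AID 2156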;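 note: B-score of peak minus minimum over baseline fluorescence ratio after K+ and Tl+ stimulus; positive B-score means potentiation of KCNQ2 with more thallium influx and brighter signal; only the inactives scoring about 0 or higher are listed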
Target sequence (O88943 whole entry, looked up): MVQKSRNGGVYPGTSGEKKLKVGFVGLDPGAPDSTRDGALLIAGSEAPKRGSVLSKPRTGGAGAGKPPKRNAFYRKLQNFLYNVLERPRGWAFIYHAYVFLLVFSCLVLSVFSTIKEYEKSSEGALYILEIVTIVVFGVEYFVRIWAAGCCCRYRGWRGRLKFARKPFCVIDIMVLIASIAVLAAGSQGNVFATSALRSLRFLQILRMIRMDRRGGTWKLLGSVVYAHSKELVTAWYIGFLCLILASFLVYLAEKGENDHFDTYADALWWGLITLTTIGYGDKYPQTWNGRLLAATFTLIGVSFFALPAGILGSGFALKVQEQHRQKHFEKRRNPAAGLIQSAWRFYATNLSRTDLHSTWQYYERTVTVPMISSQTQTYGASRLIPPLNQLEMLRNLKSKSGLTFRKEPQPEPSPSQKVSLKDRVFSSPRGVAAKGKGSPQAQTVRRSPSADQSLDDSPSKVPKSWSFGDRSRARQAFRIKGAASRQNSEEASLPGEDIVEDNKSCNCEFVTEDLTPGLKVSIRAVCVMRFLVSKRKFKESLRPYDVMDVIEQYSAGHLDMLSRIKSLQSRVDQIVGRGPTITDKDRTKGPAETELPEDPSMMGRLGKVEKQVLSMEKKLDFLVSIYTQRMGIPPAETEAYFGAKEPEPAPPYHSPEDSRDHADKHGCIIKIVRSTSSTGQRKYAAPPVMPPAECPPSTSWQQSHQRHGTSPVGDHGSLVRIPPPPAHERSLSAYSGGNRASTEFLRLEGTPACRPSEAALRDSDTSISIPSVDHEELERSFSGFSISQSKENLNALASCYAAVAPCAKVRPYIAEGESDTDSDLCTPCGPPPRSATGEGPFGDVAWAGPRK
KCNQ2 enhance baseline = recorded beside KCNQ2 enhance, whose call it bears; B-score; compound at 10 µM; measured here: initial fluorescence intensity artifact check;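 brightness before thallium and not channel activity; 0 = typical well and far values either way flag optical interference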
* = called active by the depositor. The list is partial; count on the stated rates, not on these rows.

SMILES	KCNQ2 enhance	KCNQ2 enhance baseline
Nc1nc(SCc2ccccc2Cl)nc2nc3c(cc12)CCCC3	0.95	-0.42
O=C(O)c1oc2ccccc2c1-n1cccc1	2.2	1.3
CCOc1ccc2[nH]c3c(NCC(C)C)ncnc3c2c1	1.6	0.44
Clc1ncn(CCOc2ccccc2)c1Cl	0.55	0.45
Cc1nc2cc(Cl)ccc2n1-c1ccccc1	0.34	0.3
O=C(COC(=O)Cc1c[nH]c2ccccc12)NC1CCCCC1	0.06	-0.5
Cc1nn(-c2ccccc2)c2[nH]c(C(F)(F)F)cc(=O)c12	2.2	0.61
O=C(COc1cccc([N+](=O)[O-])c1)N/N=C/c1ccco1	1.7	0.66
C=CCNC(=S)/N=c1/ccccn1Cc1ccccc1	1.5	0.04
O=C(NOC(=O)c1cc(Br)ccc1Cl)c1cccs1	0.97	-0.55
COc1ccccc1OCCOc1ccc(/C=N/n2cnnc2)cc1	1	0.05
Cc1ccc(NC(=O)c2ccc([N+](=O)[O-])cc2Cl)nc1	0.17	1.6
Cc1ccc(NC(=O)C2CCN(S(=O)(=O)c3ccc(N4CCCC4=O)cc3)CC2)cc1Cl	0.72	-0.16
O=C(Nc1cc(Cl)ccc1Cl)c1ccc(OC(=O)c2ccco2)cc1	1.1	1.6
COc1ccc(N2CCN(CCNS(=O)(=O)c3ccc(C)cc3)CC2)cc1	1.1	0.05
COc1ccc(CNC(=O)CNC(=O)CNS(=O)(=O)c2ccc(C)c(C)c2)cc1	1.1	1
COc1ccc(C2Nc3ccccc3C(=O)N2c2ccccc2)cc1COc1ccccn1 (centres undefined)	0.11	0.25
COc1ccc(Oc2ccc(C(F)(F)F)cc2N)cc1	0.38	-0.28
Cc1ccc(Cn2ccsc2=NC(=O)COC(=O)c2ccc(O)cc2O)cc1	0.14	-0.89
COc1ccc(NC(=S)NC(=O)c2cc3ccccc3o2)c(OC)c1	0.97	0.72
O=C(O)c1ccc(/C=N/Nc2ncc(C(F)(F)F)cc2Cl)cc1	0.24	-0.62
Cc1ccc(S(=O)(=O)N(C)c2ccc(C(=O)N3CCCCC3)cc2)cc1	1.1	0.47
Cc1ccc(C)c2c1cc(C)c1nnc(SCC(=O)N3CCCc4ccccc43)n12	1.1	0.83
NC(=O)CSc1nccn1Cc1ccccc1	0.31	1.2
Cc1ccc(C2(C(F)(F)F)NC(=O)N3N=C4CCCCCN4C3=C2C#N)cc1 (centres undefined)	0.41	-1.9

For convenience, some entries already given:
SMILES	KCNQ2 enhance	KCNQ2 enhance baseline
Cc1ccc(C)c2c1cc(C)c1nnc(SCC(=O)N3CCCc4ccccc43)n12	1.1	0.83
NC(=O)CSc1nccn1Cc1ccccc1	0.31	1.2
Cc1ccc(C2(C(F)(F)F)NC(=O)N3N=C4CCCCCN4C3=C2C#N)cc1 (centres undefined)	0.41	-1.9

Later entries:
SMILES	KCNQ2 enhance	KCNQ2 enhance baseline
CC(C)Oc1ccc(Cn2c(=O)oc3ccccc32)cc1	0.9	-0.5
COc1ccc2[nH]c(CN3CCN(CCC(C)C)C(CCO)C3)c(C)c2c1 (centres undefined)	1.2	-0.03
Cn1c(=O)[nH]c(=O)c2c1nc(CN1CCOCC1)n2Cc1ccccc1	0.01	0.66
COc1ccc(/C=N/NC(=O)c2ccc(C)nc2)cc1O	0.33	1.2
Cc1cc(NC(=O)CSc2nccn2-c2cccc(Cl)c2)no1	1.6	-0.01
COc1ccc(OC)c(C2=NOC(C(=O)NCC3CCCO3)C2)c1 (centres undefined)	1.3	1.4
CCCn1nnnc1NCc1ccccc1OCc1cccs1	0.01	0.28
Cc1ccc(S(=O)(=O)NCC(=O)N2CCOCC2)cc1	0.9	-0.83
CCn1c(Oc2ccccc2C)nc2c1c(=O)n(C)c(=O)n2C	0.02	0.96
CCCc1cc(=O)oc2cc(OC(=O)CN3C(=O)NC4(CCCC4)C3=O)ccc12	0.29	1.6
Nc1ccc(-c2nnc(-c3ccc(N)cc3)o2)cc1	1.6	-0.72
CC1CN(C(=O)CSc2nc(-c3ccc(F)cc3)cs2)CC(C)O1 (centres undefined)	1.2	0.75
Cc1ccc(NC(=O)COC(=O)CCc2nc3ccccc3c(=O)[nH]2)cc1Cl	1.3	0.54
COc1cc(CNCC(C)C)c(Br)cc1OCC(=O)NCc1ccccc1	0.5	1.2
Cc1ccc(-c2cc[n+](Cc3ccccc3)cc2)cc1	1.4	-0.03
COC(=O)c1cc(Cl)c(NC(=O)c2cc3ccccc3o2)cc1OC	1	0.08
COc1cc(CNc2ccc3[nH]c(=O)[nH]c3c2)ccc1OCc1ccc(F)cc1	0.4	-1.3
CCn1cc(C(=O)NCCC2=CCCCC2)c(=O)c2cc(S(=O)(=O)N(C)C)ccc21	0.17	1.6
CN(CCOc1cccc2ccccc12)Cc1ccccc1	0.14	-0.99
COC(=O)c1ccccc1NC(=O)CSc1nnc(-c2cccnc2)n1N	0.3	-0.93
Cc1cnc(C(=O)OCC(=O)c2csc(N3CCCCC3)n2)cn1	0.78	-1.2
CCn1c(Cc2ccccc2)nnc1SCC(=O)Nc1ccc2c(c1)OCO2	0.32	0.11
COc1ccc(-c2nc(CSCC(=O)NC3CC3)c(C)o2)cc1OC	0.16	0.01
CCCNC(=O)c1cccc(COc2ccccc2OC)c1	0.7	1.2
S=C(NC1CCCC1)NC1CC1	0.64	-0.12

The closing 6 entries of the section above come first, to join the parts.
SMILES	KCNQ2 enhance	KCNQ2 enhance baseline
COC(=O)c1ccccc1NC(=O)CSc1nnc(-c2cccnc2)n1N	0.3	-0.93
Cc1cnc(C(=O)OCC(=O)c2csc(N3CCCCC3)n2)cn1	0.78	-1.2
CCn1c(Cc2ccccc2)nnc1SCC(=O)Nc1ccc2c(c1)OCO2	0.32	0.11
COc1ccc(-c2nc(CSCC(=O)NC3CC3)c(C)o2)cc1OC	0.16	0.01
CCCNC(=O)c1cccc(COc2ccccc2OC)c1	0.7	1.2
S=C(NC1CCCC1)NC1CC1	0.64	-0.12
COc1ccc(-n2cccc2C=O)cc1	0.01	-1.5
O=C(NCc1n[nH]c(=S)n1-c1ccc(Cl)c(Cl)c1)c1ccco1	0.02	0.08
Cc1cc(C)c(S(=O)(=O)N2CCCOC2CNC(=O)C(=O)NCc2ccccn2)c(C)c1 (centres undefined)	1	-0.07
CCCN(C(=O)Cn1ncc2c(=O)oc3ccccc3c21)c1cccc(C)c1	0.62	-0.37
O=C1CCc2ccc(NS(=O)(=O)c3ccc(F)cc3)cc2N1	1.5	-1.2
CNc1nc(N2CCc3ccccc32)ncc1F	0.06	-0.57
C=CCSc1nnc2nc3[nH]c4c(C)cccc4c3nn12	0.14	-0.64
Cc1sc2ncn(CC(=O)NCCCN3CCC(C)CC3)c(=O)c2c1S(=O)(=O)N1CCC(C)CC1	0.22	2.8
O=C1NC(=Nc2ccc(Cl)cc2)/C(=C/c2ccco2)S1	0.85	0.74
CCOC(=O)C1CCN(C(=O)CN2C(=O)C(CC)Oc3ccccc32)CC1 (centres undefined)	0.54	1.1
COc1ccc(CNC2CC(=O)N(C)C2=O)cc1 (centres undefined)	0.75	1.1
O=C(Nc1nc2c(F)cc(F)cc2s1)C1CC(=O)N(Cc2ccco2)C1 (centres undefined)	0.41	0.44
Cn1c(CN2CCOCC2)nnc1SCC(=O)Nc1nccs1	0.48	0.77
CC(C)(C)C(=O)NC1(C(F)(F)F)N=C2SCCN2C1=O (centres undefined)	2.1	-0.74
O=C(CCN1C(=O)c2ccccc2C1=O)Nc1ccccn1	0.59	-0.17
CCc1ccc(-c2cc(C)no2)cc1S(=O)(=O)NCCc1ccc(OC)c(OC)c1	0.68	-2.5
COc1ccc(N2CCN(C(=O)c3ccncc3)CC2)cc1	2	-0.25
COc1ccc(CN2C(=NC(=O)CCC3CCCC3)SC3CS(=O)(=O)CC32)cc1 (centres undefined)	0.56	0.22
O=C(CCNC(=O)c1ccc(Br)cc1)NNC(=O)C1COc2ccccc2O1 (centres undefined)	0.69	0.17
N#Cc1ccc(C(=O)Nc2ccc(N3CCN(C(=O)c4ccco4)CC3)cc2)c(F)c1	0.57	0.05
COc1cc2cnc(Cl)nc2cc1OC	0.66	-0.34
Cc1nccn1CCN(C)Cc1cn(Cc2ccccc2)nc1-c1ccc2c(c1)OCO2	1.4	-1.6
COc1cccc(Nc2nnc(SCC(=O)N3CC(C)OC(C)C3)s2)c1 (centres undefined)	0.86	-0.1
O=C(COc1ccc(Cl)cc1Cl)Nc1ccc(S(=O)(=O)NC2=NCCCCC2)cc1	1.2	0.25
Brc1ccccc1-n1nnc(-c2nccs2)n1	0.51	0.8
More records follow.
SMILES	KCNQ2 enhance	KCNQ2 enhance baseline
O=S(=O)(CC(c1ccccc1)N1CCCCC1)c1ccc(Cl)cc1 (centres undefined)	0.39	0.71
c1ccc2nc(N3CCOCC3)c(N3CCOCC3)nc2c1	0.33	-0.13
O=C(NC(=S)Nc1ccc2c(c1)OCCO2)c1ccco1	2.3	-0.22
CCCCCC(=O)NC(Nc1ccc(S(N)(=O)=O)cc1)C(Cl)(Cl)Cl (centres undefined)	0.9	0.13
CCN(CC)S(=O)(=O)c1ccc(C(=O)N2CCCCC2)cc1	0.04	-0.05
COc1ccc(S(=O)(=O)N2CCCC2C(=O)Nc2ccc(C(C)=O)cc2)cc1 (centres undefined)	0.57	0.13
N#CC1=C(SCc2ccc(C#N)cc2)N=C(N)C(c2nc(-c3ccccc3)cs2)C12CCCCC2 (centres undefined)	0.02	2
CNC(=O)COc1ncnc2scc(-c3ccc(F)cc3)c12	1.6	-1.9
CCOC(=O)CSc1nnc2n(C3CCCCC3)c(=O)c3c4c(sc3n12)CCCC4	0.41	-1.3
CCCNC(=O)COC(=O)/C=C/c1ccc(C)o1	1.3	0.03
CN(C(=O)C(=O)c1cn(CC(=O)N2CCCC2)c2ccccc12)C1CCCCC1	0.17	-0.01
O=C1CC(SC2=NCCS2)C(=O)N1c1ccc(Cl)cc1 (centres undefined)	2	-0.04
Cn1c(C(=O)N2CCC(C(=O)N3CCN(Cc4ccc5c(c4)OCO5)CC3)CC2)cc2sccc21	0.74	-0.88
COCc1cc(=O)n2[nH]c(C)nc2n1	0.15	0.7
O=C(Nc1ccncc1)c1c(F)cccc1F	1.4	0.57
Cc1c(CCC(=O)O)c(=O)oc2cc(OCc3ccccc3Br)ccc12	0.82	1.8
CC(=O)Nc1nnc(SCc2cc(=O)c(OC(=O)c3ccccc3)co2)s1	0.02	-0.32
COc1cccc(C(=O)n2ccc(-c3cccs3)n2)c1	0.48	-0.28
c1ccc(-c2ccccc2OCCCN2CCCCC2)cc1	0.05	1.1
COC(=O)c1cnc(NNS(=O)(=O)c2ccc(Cl)cc2)nc1C(F)(F)F	1.6	0.05
CC(NC(=O)CCc1ccccc1)c1ccc2c(c1)OCO2 (centres undefined)	8.5*	-1.6*
O=C(COc1ccccc1[N+](=O)[O-])N1CCN(S(=O)(=O)c2ccccc2)CC1	1.7	-2.3
O=C(Cc1cccc2ccccc12)Nc1cccnc1	1.8	-0.83
CCCCc1ccc(-c2nc(-c3ccncc3)no2)cc1	1.2	0.03
Clc1cccc(CNc2nc(-c3cccnc3)nc3ccccc23)c1	0.29	1.7
(next part)
SMILES	KCNQ2 enhance	KCNQ2 enhance baseline
COC(=O)c1cc(C)sc1NC(=O)CN1CCN(C(=O)c2ccco2)CC1	0.52	0.44
CC1=C(C)CC(C(=O)NCC(=O)c2ccccc2)C(C(=O)O)C1 (centres undefined)	0.15	-0.49
COc1cccc(N(CC(=O)NCCSc2ccc(Cl)cc2)S(C)(=O)=O)c1	0.06	0.01
COc1ccc(-c2noc(N3CCC(C(=O)NCCCN4CCCC(C)C4)CC3)n2)cc1 (centres undefined)	1.1	-0.47
CCc1ccc(C2c3[nH]c4ccccc4c3CCN2C(=O)CNC(N)=O)cc1 (centres undefined)	3.4	2.9
CCCc1ccc2c(N)c(C#N)sc2n1	3.2	-2.6
COc1ccc(C2C3=C(CC(C)(C)CC3=O)Oc3ncn4nc(-c5cccnc5)nc4c32)cc1 (centres undefined)	0.18	-1
Cc1c(Cl)cnc(NC(=O)COC(=O)c2ccc3ncsc3c2)c1Cl	0.02	-0.77
C/C(=N\Nc1c(F)c(F)c(Br)c(F)c1F)c1ccncc1	0.54	2.6
COc1ccc(CNC(=O)C2CCN(S(=O)(=O)c3cccc4cccnc34)CC2)cc1	0.52	-0.51
O=C(CCNC(=O)c1ccccc1Cl)NCC12CC3CC(CC(C3)C1)C2	0.77	0
COc1ccc(-c2nn3c(=O)c(C)nnc3s2)cc1	0.82	-1.4
CC1=NN(c2ccc(S(=O)(=O)O)cc2C)C(=O)C1	1.1	-1.8
Cc1c(C(=O)NCc2cccs2)oc2ccc(S(=O)(=O)N3CCOCC3)cc12	0.01	0.12
O=C(c1ccccc1)C1CCN(c2ncccc2[N+](=O)[O-])CC1	0.12	-2.6
CC(C)CN1CCC(=O)N(CCSc2ccccc2)CC1	0.06	-0.92
CCOC(=O)CN1C(=O)N[C@@H](c2ccccc2)[C@@H](C(=O)OC)[C@H]1C	0.04	-0.06
Cc1sc(NC(=O)CCCC(=O)O)c(C(N)=O)c1-c1ccccc1	0.7	-0.53
NC(=O)c1c(Nc2nc3c(F)cccc3s2)sc2c1CCCC2	0.83	-0.35
CCC(=O)N1CCc2cc(S(=O)(=O)CCC(=O)N3CCN(c4ccccc4)CC3)ccc21	1.4	-0.06
COc1ccccc1NS(=O)(=O)c1ccc(C(=O)OCC(=O)NCc2ccco2)cc1	0.53	-0.49
Brc1cc2c(cc1/C=N/Nc1nc(N3CCCC3)nc(N3CCOCC3)n1)OCO2	0.18	-0.04
O=C(Cn1ncc2c1-c1ccccc1OC2)Nc1ccc(Cl)cn1	0.02	-0.27
CC(C)C(OC(=O)c1ccco1)C(=O)NCc1ccc2c(c1)OCO2 (centres undefined)	0.48	1.1
